Bioassay records (PubChem)
GIRK2 act = opens human GIRK2 potassium channels; calls only for hits at 25 µM; P48051; HEK293-GIRK2 thallium flux, Thallos fluorescence; 0.05% of 63,000 active;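 active = among the strongest 0.2% of first-round signals and kept after retests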;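 also: first round at about 10 µM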
Target sequence (P48051 whole entry, looked up): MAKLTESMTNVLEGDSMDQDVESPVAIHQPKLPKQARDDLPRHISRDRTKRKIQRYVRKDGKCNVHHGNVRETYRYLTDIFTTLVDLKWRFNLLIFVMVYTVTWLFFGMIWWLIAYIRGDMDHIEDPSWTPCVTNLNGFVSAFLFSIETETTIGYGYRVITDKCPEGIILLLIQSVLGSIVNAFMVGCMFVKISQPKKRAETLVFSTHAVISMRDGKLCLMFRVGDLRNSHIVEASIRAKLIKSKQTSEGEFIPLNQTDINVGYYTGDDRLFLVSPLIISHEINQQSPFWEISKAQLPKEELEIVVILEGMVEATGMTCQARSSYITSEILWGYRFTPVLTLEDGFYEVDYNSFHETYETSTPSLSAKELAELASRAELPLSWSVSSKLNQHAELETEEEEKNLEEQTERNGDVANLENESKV
Calls only; i = inactive. The list is partial. The share of hits here may be higher or lower than overall.

GIRK2 act | Molecule
i | Cc1ccc(C(C)C)c(OCC(O)Cn2c(N3CCCCC3)nc3c2c(=O)[nH]c(=O)n3C)c1 (configuration not stated)
i | O=C(Nc1cccs1)N1CCC2(CC1)OCCS2
i | Nc1cc(C(=O)O)ccc1[N+](=O)[O-]
i | Cc1ccc(NC(=O)CSc2nnc(CCc3nc4ccccc4s3)o2)cc1F
i | COCCn1c(=O)c2c(nc(-n3nc(C)cc3C)n2Cc2ccccc2C)n(C)c1=O
i | Cc1nc(N2CCN(C(=O)c3ccc(F)cc3Cl)CC2)cc(-n2cccc2)n1
i | O=C(CCSc1ccccc1)N1CCN(c2ccc3nnc(-c4ccco4)n3n2)CC1
i | Cc1cc(C)n(-c2nc(CCNC(=O)c3cc4ccccc4oc3=O)cs2)n1
i | COc1ccc(S(=O)(=O)N2CCC3(CC2)OCCCO3)cc1Cl
i | COc1ccc(NC(=O)CSc2nccn2-c2cccc(C(=O)NCc3ccco3)c2)cc1

Further results follow.
GIRK2 act | Molecule
i | COc1ccccc1CNC(=O)c1cc(=O)c(OC)cn1C
i | Cc1ccc(N2CC(C)Cn3c2nc2c3c(=O)[nH]c(=O)n2C)cc1C (configuration not stated)
i | O=C(Nc1ccc(-n2nnc(C(=O)NCC(F)(F)F)n2)cc1)c1cccc(F)c1
i | CCOc1ccc(NC(=O)N2CCN(c3ccc4nnc(-c5ccco5)n4n3)CC2)cc1
i | COc1cc(/C=C/C(=O)O[C@H]2[C@@H]3C=CO[C@@H](O[C@@H]4O[C@H](CO)[C@@H](O)[C@H](O)[C@H]4O)[C@@H]3[C@@]3(CO)O[C@@H]23)ccc1O
i | O=C(Cc1cccs1)NCCn1ncc2c(N3CCN(Cc4ccccc4)CC3)ncnc21
i | Cc1noc(C)c1CCC(=O)N1CCC(S(=O)(=O)c2ccc(F)cc2)CC1
i | O=C(NCCOc1ccc(-c2ccc(F)cc2)nn1)C(F)(F)F
i | Cc1cc(C)c(N2CCN(S(=O)(=O)N3CCCCCC3)CC2)c(C)c1
i | COc1ccc(CCNC(=O)c2cn(C)nc2C)cc1OC

Two of these compounds in a different format.
| Molecule | GIRK2 act |
| --- | --- |
| COc1ccc(CCNC(=O)c2cn(C)nc2C)cc1OC | i |
| COc1cc(/C=C/C(=O)O[C@H]2[C@@H]3C=CO[C@@H](O[C@@H]4O[C@H](CO)[C@@H](O)[C@H](O)[C@H]4O)[C@@H]3[C@@]3(CO)O[C@@H]23)ccc1O | i |

Next part
GIRK2 act | Molecule
i | Cc1cc2c(SCC(=O)Nc3nccs3)ncnc2s1
i | CS(=O)(=O)N1CC(Oc2nc3c(F)cccc3s2)C1
i | COc1ccc(C2C(C(=O)c3cccs3)=C(O)C(=O)N2c2cc(C)on2)cc1OC (configuration not stated)
i | Cc1cc(C(F)(F)F)nc(CCNC(=O)C23CC4CC(CC(C4)C2)C3)n1
i | Cc1ccc(NC(=O)Cn2cnc3c(-c4ccc(Cl)cc4)csc3c2=O)cc1
i | O=C(CSc1nnnn1-c1ccccc1)N1CCC(c2noc3ccc(F)cc23)CC1
i | Cc1ccc(NC(=O)c2sccc2S(=O)(=O)N(C)c2ccc(Cl)cc2)cc1
i | COC(=O)C1CCN(c2cc(-c3ccccc3)ncn2)CC1
i | CCc1ccc(C(=O)NCCC(O)C(C)(C)C)cc1 (configuration not stated)
i | CSc1nnc(CCc2c(C)[nH]c(=O)[nH]c2=O)o1

Next results.
GIRK2 act | Molecule
i | COc1cc(OC)cc(-c2nnc(NC(=O)c3ccc(-c4ccccc4)cc3)o2)c1
i | O=C(NC1CCCCC1N1C(=O)CSC1=O)C1c2ccccc2Oc2ccccc21 (configuration not stated)
i | COc1cccc(NC(=O)C2CCN(c3c(C#N)cnc4ccccc34)CC2)c1
i | CN1C(=O)C(C)(C)COc2cc(NC(=O)NCCc3ccccc3)ccc21
i | CC(Oc1ccccc1)C(=O)NCC1CCN(C(=O)c2ccncc2)CC1 (configuration not stated)
i | C=C1CCC2[C@@](C)(C(=O)O)CCC[C@@]2(C)[C@@H]1CCc1ccoc1 (some centres not stated)
i | Cc1nnc(C2CCCN(C(=O)CC3CCCC3)C2)s1 (configuration not stated)
i | COc1ccccc1-c1ccc(N2CCCC(C(=O)NCc3sc(C)nc3C)C2)nn1 (configuration not stated)
i | CC1CCC(NC(=O)C2CCN(c3ncccc3S(=O)(=O)N3CCCCC3)CC2)CC1 (configuration not stated)
i | O=S(=O)(Cc1ccccc1)NCC1(c2ccc(F)cc2)CC1

Grouped by structure: the entries above containing an NH in an aromatic ring
GIRK2 act | Molecule
i | Cc1ccc(C(C)C)c(OCC(O)Cn2c(N3CCCCC3)nc3c2c(=O)[nH]c(=O)n3C)c1 (configuration not stated)
i | Cc1ccc(N2CC(C)Cn3c2nc2c3c(=O)[nH]c(=O)n2C)cc1C (configuration not stated)
i | CSc1nnc(CCc2c(C)[nH]c(=O)[nH]c2=O)o1

Other structures
GIRK2 act | Molecule
i | Cc1ccc(CNC(=O)c2cn(C)nc2S(=O)(=O)N2CCN(c3ccccc3Cl)CC2)cc1
i | O=C(/C=C/c1cccs1)Nc1ccc2c(c1)CN(C(=O)c1ccco1)CC2
i | Cc1noc(C)c1CN1CCN(C(=O)CC2CCCCC2)CC1
i | Cc1csc(SCC2CCN(S(=O)(=O)/C=C/c3ccccc3)CC2)n1
i | O=C(c1ccc(Cl)cc1)N1CCOCC1CO (configuration not stated)
i | COc1ccc(-c2nc3nc4ccccc4nc3n2CC2CCCO2)cc1 (configuration not stated)
i | Cc1nn(-c2ccccc2)c(C)c1N1CCN(C(=O)Cc2ccc(F)cc2)CC1
i | CSc1cccc(NC(=O)Cn2nc3ccc(-c4ccc(C)c(C)c4)nn3c2=O)c1
i | COc1ccc(C2CCCN2CCNS(=O)(=O)c2cccs2)cc1 (configuration not stated)
i | O=C(Nc1ccc(C(F)(F)F)cc1)C(=O)NC1CCCCCC1

(further entries)
GIRK2 act | Molecule
i | CCn1c(C2CC(=O)N(CCOC)C2)nc2ccccc21 (configuration not stated)
i | CCC(C(=O)Nc1ccc(-n2nnn(C)c2=O)cc1)c1ccccc1 (configuration not stated)
i | CCOC(=O)c1cc2cc([N+](=O)[O-])cc(OC)c2oc1=O
i | O=C(NCC1(c2ccc(F)cc2)CC1)c1ccccc1C(F)(F)F
i | COc1ccc(-c2csc3c(=O)n(CC(=O)Nc4ccc(C(C)C)cc4)cnc23)cc1
i | COC(=O)C1(Cc2ccc(O)c(CC=C(C)C)c2)OC(=O)C(OC)=C1c1ccc(O)c(O)c1 (configuration not stated)
i | COC(=O)c1ccc(Cn2cc(-c3nc(-c4ccccc4F)no3)ccc2=O)o1
i | NC(=O)Cn1nc2n(CCC(=O)NC3CCCCC3)c(=O)c3ccccc3n2c1=O
i | COc1ccccc1COc1cc(NC(=O)Cn2nnc3ccccc32)ncn1
i | CCCN(CCC)S(=O)(=O)c1ccc(Br)c(OC)c1

(list continues)
GIRK2 act | Molecule
i | COc1cccc(Sc2ccc(N3CCC(C(=O)NCc4ccc(OC)c(OC)c4)CC3)nn2)c1
i | COc1ccc2sc(N(CCN3CCOCC3)C(=O)c3ccc(S(C)(=O)=O)cc3)nc2c1
i | Cc1ccccc1-c1nc(-c2nnn(Cc3ccccc3)c2C)no1
i | COc1ccc(C(=O)/C=C/c2ccc(C)cc2)c(OC)c1
i | N#Cc1nc(-c2ccco2)oc1N1CCN(C(=O)c2ccccc2Cl)CC1
i | O=C(c1csc(Nc2ncccn2)n1)N1CCN(c2cccc(C(F)(F)F)c2)CC1
i | O=C(NCC1CCN(C(=O)Oc2ccccc2)CC1)c1ccccc1
i | O=C(/C=C/c1ccco1)Nc1nc2c(s1)COCC2
i | N#Cc1ccc(C(=O)N2CCN(CC(O)C3CC3)CC2)cc1 (configuration not stated)
i | COc1ccc(C(=O)N2CCN(C(=O)C3CC3c3ccccc3)CC2)cc1OC (configuration not stated)

The list goes on.
GIRK2 act | Molecule
i | CCSc1nnc(NC(=O)c2cc(=O)c(OC)c[nH]2)s1
i | CCC(C(=O)N1C2CCCC1COC2)c1ccccc1 (configuration not stated)
i | O=C(c1ccc(F)cc1)N1CCN(CC(O)c2cccs2)CC1 (configuration not stated)
i | COc1ccccc1N1CCN(C(=O)Cn2c(C)nc(C(C)(C)C)cc2=O)CC1
i | COc1ccc(-n2c(=O)c3sccc3n(Cc3nc(-c4ccccc4OC)no3)c2=O)cc1
i | O=C(Cn1cnc2ccccc2c1=O)NCCOc1cccc2cccnc12
i | COC(=O)C(C)Oc1ccc2c(c1C)O/C(=C\c1cc(OC)c(OC)c(OC)c1)C2=O (configuration not stated)
i | COc1ccccc1CNC(=O)c1cc2n(n1)CCCO2
i | CCN(CCCNC(=O)CCC1=NS(=O)(=O)c2ccccc2N1)c1ccccc1
i | COc1ccc(C(=O)N(Cc2cccnc2)c2nc3c(C)cc(Cl)cc3s2)cc1OC

The results go on.
GIRK2 act | Molecule
i | O=C(CCCSc1ccc(NC(=O)c2ccco2)nn1)Nc1cnc2ccccc2c1
i | CC(=O)Cn1c(=O)c2c(nc3n(-c4ccccc4Cl)c(C)cn23)n(C)c1=O
i | COC(=O)Nc1ccc(S(=O)(=O)N2CCCC(C(=O)Nc3ccc4ccccc4c3)C2)cc1 (configuration not stated)
i | Cc1cc(Br)ccc1NC(=O)CSc1cc(N2CCCC2)ncn1
i | NS(=O)(=O)c1ccc(NC(=O)CCc2csc(NC(=O)c3ccco3)n2)cc1
i | COc1cc(C(=O)NC2CCCNC2)cc(OC)c1OC (configuration not stated)
i | O=C(Nc1cc(=O)[nH]c2nc(C(F)(F)F)nn12)c1ccc(F)cc1
i | COc1ccccc1OCC#CCNC(=O)/C=C/c1ccco1
i | Cc1ccc2oc3c(c(=O)c2c1)C(c1cccc(F)c1)N(c1nc(C)cs1)C3=O (configuration not stated)
i | O=S(=O)(NCCNc1cc(Nc2ccccn2)ncn1)c1ccccc1C(F)(F)F

Additional entries
GIRK2 act | Molecule
i | CCN1C(SCC(=O)N2CCN(c3ccccc3F)CC2)=NS(=O)(=O)c2ccccc21
i | Cc1c(Cl)cccc1S(=O)(=O)NCCn1nc(C(F)(F)F)n(C)c1=O
i | CCCCc1ccc(NC(=O)c2cc3cccnc3n(C)c2=O)cc1
i | COc1ccc(C(=O)CSc2nnc(-c3ccncc3)o2)cc1
i | O=C(NCc1ccsc1)c1ccc(OC(F)(F)F)cc1
i | O=C(NCc1ccco1)c1csc(Nc2ccc(OC(F)F)cc2)n1
i | CCC(C)C(O)C(C)(O)/C=C/C1=CC2=CC(=O)C(C)(O)C(O)C2CO1 (configuration not stated)
i | O=C(O)c1c[nH]c2cc(C(F)(F)F)ccc2c1=O
i | CCOC(=O)CCC(=O)N1CCC(CSc2nccn2C)CC1
i | CC(=O)Nc1ccc(S(=O)(=O)N2CCC(c3nnc(-c4ccco4)s3)CC2)cc1

Five entries from above, reformatted.
| structure | GIRK2 act |
| --- | --- |
| COc1ccccc1COc1cc(NC(=O)Cn2nnc3ccccc32)ncn1 | i |
| CCCN(CCC)S(=O)(=O)c1ccc(Br)c(OC)c1 | i |
| COc1cccc(Sc2ccc(N3CCC(C(=O)NCc4ccc(OC)c(OC)c4)CC3)nn2)c1 | i |
| COc1ccc2sc(N(CCN3CCOCC3)C(=O)c3ccc(S(C)(=O)=O)cc3)nc2c1 | i |
| Cc1ccccc1-c1nc(-c2nnn(Cc3ccccc3)c2C)no1 | i |

Returning to the listing, repeating the 4 entries before the break.
GIRK2 act | Molecule
i | CCC(C)C(O)C(C)(O)/C=C/C1=CC2=CC(=O)C(C)(O)C(O)C2CO1 (configuration not stated)
i | O=C(O)c1c[nH]c2cc(C(F)(F)F)ccc2c1=O
i | CCOC(=O)CCC(=O)N1CCC(CSc2nccn2C)CC1
i | CC(=O)Nc1ccc(S(=O)(=O)N2CCC(c3nnc(-c4ccco4)s3)CC2)cc1
i | O=C(CCCCn1c(=O)c2ccccc2n(Cc2ccccc2F)c1=O)NCc1ccco1
i | O=C(NCCCn1ncccc1=O)c1cc(Br)ccc1Cl
i | CN1c2ccc(Cl)cc2C(=O)NC12CCN(C(=O)c1cc(F)cc(F)c1)CC2
i | CN(C)CC1CSCCCN1C(=O)CC(c1ccccc1)c1ccccc1 (configuration not stated)
i | Cc1cc(C)n(CC(=O)Nc2ccc3c(c2)OCO3)c(=O)c1C#N
i | O=C(NCCN1CCN(C(=O)c2ccc3nsnc3c2)CC1)c1ccc2c(c1)OCO2
i | Cc1cc(C)n(CC2CCN(S(=O)(=O)Cc3ccccc3)CC2)n1
i | CC(=O)NCCNC(=O)c1ccc(Nc2nn3c(=O)c4ccccc4nc3s2)cc1
i | CNC(=O)C1Cc2ccccc2N1C(=O)c1ccc(OC)cc1OC (configuration not stated)
i | COc1cc(OC)c(-n2nnc(-c3nc(-c4ccccc4OC)cs3)c2N)cc1Cl

Following part.
GIRK2 act | Molecule
i | Cc1ccccc1Cn1nnc2c(=O)n(Cc3nc(-c4ccccc4Cl)no3)cnc21
i | CS(=O)(=O)NCC1CCC(C(=O)N2CCc3ccccc3C2)CC1 (configuration not stated)
i | COc1ccccc1C(O)Cn1cc(C(=O)Nc2cccc(F)c2C)nn1 (configuration not stated)
i | COCCCn1c(C(=O)N2CCC(C)CC2)cc2c(=O)n3ccccc3nc21
i | CCCCNc1oc(-c2ccc(S(=O)(=O)N3CCCC3)cc2)nc1C#N
i | O=C(C1=C(O)C(=O)N(c2nncs2)C1c1ccc([N+](=O)[O-])cc1)c1cccs1 (configuration not stated)
i | O=C(NCCOc1ccc(-c2ccccc2)nn1)c1cc(-c2ccco2)on1
i | CCN(CC)c1ccc(N2C(=O)/C(=C/c3cc(OC)c(OC)c(OC)c3)SC2=S)cc1
i | COC(=O)c1ccc(F)c([N+](=O)[O-])c1
i | O=C(CCCCn1c(=O)[nH]c2ccsc2c1=O)NCCc1ccccc1

Next structures
GIRK2 act | Molecule
i | O=C(NCC1(c2cccs2)CCOCC1)c1ccccc1C(F)(F)F
i | Cc1cccc(CC(=O)Nc2ccc(-n3nnc(C(=O)N4CCCC4)n3)cc2)c1
i | Cc1ccc(-c2cc(C(=O)N3CCC(NC(=O)c4cccc(N(C)C)c4)CC3)[nH]n2)c(C)c1
i | Cc1cc(=O)n(CCNC(=O)NCc2cccc3ccccc23)cn1
